DUX4 txn inh = DUX4-mediated transcription inhibition; activity change, negative = inhibition, % (no concentration beside the values); 293T-iDUX4 ZSCAN4-Gaussia luciferase reporter, 24 h; hits give low values; AID 1224904; hit rate 0.8% among 37,000;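 active = -10% or lower and over 25 points stronger than a control reporter; inconclusive = -10% or lower with a smaller gap; inactive = above -10%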;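 also: 0% = median of neutral control wells and -100% = median of positive control wells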
DUX4 txn inh difference = further read-out of DUX4 txn inh, marked with its call; Gaussia minus Italica difference, %; measured here: selective DUX4 reporter inhibition;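 worked out from the two reporters; negative = selective loss of the DUX4 reporter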
DUX4 txn inh control = second read-out of DUX4 txn inh, no call of its own (marks repeat the call); activity change, negative = inhibition, %; measured here: Italica tet-on control reporter;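 0 = neutral control and -100 = positive control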
* marks the source's active call; other numbers are inactive results; u = inconclusive; x = not tested or not shown. An excerpt; rates above refer to the full screens.

1: Cc1cccc(S(=O)(=O)N2C[C@@H]3[C@H](c4ccccc42)[C@H](CO)N3Cc2ccc3c(c2)OCO3)c1
  DUX4 txn inh = -3.0
  DUX4 txn inh difference = -5.6
  DUX4 txn inh control = 2.6
2: O=C(c1cnccn1)N1CC(=O)N2[C@H](CO)[C@@H](c3ccc(-c4ccccc4)cc3)[C@H]2C1
  DUX4 txn inh = 3.2
  DUX4 txn inh difference = 2.8
  DUX4 txn inh control = 0.5
3: N#C[C@@H]1N[C@@H](CO)[C@H]1c1ccc(-c2cccc(F)c2)cc1
  DUX4 txn inh = -3.2
  DUX4 txn inh difference = -2.9
  DUX4 txn inh control = -0.3
4: CCCNC(=O)N1[C@H](CO)[C@H](c2ccc(-c3ccccc3F)cc2)[C@@H]1C#N
  DUX4 txn inh = -4.8
  DUX4 txn inh difference = -0.1
  DUX4 txn inh control = -4.7
5: C[C@@H]1CN([C@@H](C)CO)C(=O)c2cccc(NS(=O)(=O)c3ccc(F)cc3)c2O[C@@H]1CN(C)Cc1ccc(Cl)c(Cl)c1
  DUX4 txn inh = -3.2
  DUX4 txn inh difference = -0.4
  DUX4 txn inh control = -2.8
6: C[C@@H]1COCn2nncc2CC[C@H](C)C(=O)N1
  DUX4 txn inh = -4.6
  DUX4 txn inh difference = -3.7
  DUX4 txn inh control = -0.9
7: O=C(c1ccncc1)N1C[C@H]2[C@@H](c3ccccc31)[C@H](CO)N2C(=O)c1ccccn1
  DUX4 txn inh = -3.9
  DUX4 txn inh difference = 1.6
  DUX4 txn inh control = -5.5
8: CN(C)C(=O)C[C@@H]1C[C@H]2c3cc(NC(=O)Nc4ccccc4F)ccc3O[C@H]2[C@@H](CO)O1
  DUX4 txn inh = 1.8
  DUX4 txn inh difference = -2.8
  DUX4 txn inh control = 4.6
9: C[C@H]1CN([C@@H](C)CO)C(=O)c2cc(C#Cc3ccc(F)cc3)cnc2O[C@@H]1CN(C)C
  DUX4 txn inh = 0.8
  DUX4 txn inh difference = 0.7
  DUX4 txn inh control = 0.1
10: O=C(C[C@@H]1C=C[C@@H](NC(=O)Nc2cccc(F)c2)[C@@H](CO)O1)NCC1CCCCC1
  DUX4 txn inh = -2.4
  DUX4 txn inh difference = 2.2
  DUX4 txn inh control = -4.6

11: COc1ccc(-c2cn(CC[C@@H]3CC[C@H](NC(=O)c4cnccn4)[C@H](CO)O3)nn2)cc1
  DUX4 txn inh = 3.4
  DUX4 txn inh difference = 6.5
  DUX4 txn inh control = -3.1
12: CO[C@@H]1CC[C@H]2CCOc3ccc(C#N)cc3C(=O)N(C)[C@H](C)C(=O)N(C)C[C@@H]1O2
  DUX4 txn inh = 0.1
  DUX4 txn inh difference = 2.6
  DUX4 txn inh control = -2.5
13: CO[C@H]1CN(C)C(=O)c2cc(NC(=O)C3CCCCC3)ccc2OC[C@H](C)N(C(=O)c2ccccc2)C[C@H]1C
  DUX4 txn inh = -0.6
  DUX4 txn inh difference = -3.7
  DUX4 txn inh control = 3.1
14: COc1ccccc1C(=O)Nc1ccc2c(c1)OC[C@H](C)N(CC1CC1)C[C@H](C)[C@H](OC)CN(C)C2=O
  DUX4 txn inh = 1.1
  DUX4 txn inh difference = 2.1
  DUX4 txn inh control = -1.0
15: CC(C)NC(=O)N1[C@H](C#N)[C@H](c2ccc(C#CC3CCCC3)cc2)[C@H]1CO
  DUX4 txn inh = 3.5
  DUX4 txn inh difference = 3.2
  DUX4 txn inh control = 0.2
16: COc1cccc(-c2ccccc2[C@@H]2[C@@H](C#N)N(C(=O)Cc3ccccc3)[C@H]2CO)c1
  DUX4 txn inh = 11.8
  DUX4 txn inh difference = 37.1
  DUX4 txn inh control = -25.3
17: CCCNC(=O)N1[C@H](C#N)[C@@H](c2ccc(-c3ccc(C(=O)N(C)C)cc3)cc2)[C@@H]1CO
  DUX4 txn inh = 0.0
  DUX4 txn inh difference = 2.8
  DUX4 txn inh control = -2.8
18: O=C(C[C@@H]1CC[C@@H]2[C@H](COC[C@@H](O)CN2C(=O)c2ccccc2F)O1)NCc1ccc(Cl)cc1
  DUX4 txn inh = -0.4
  DUX4 txn inh difference = -0.9
  DUX4 txn inh control = 0.5
19: COc1ccc2c3c([nH]c2c1)[C@@H](CO)N(C(=O)C1CCC1)CC31CN(Cc2cccc(F)c2)C1
  DUX4 txn inh = u
  DUX4 txn inh difference = x
  DUX4 txn inh control = x
20: C[C@@H]1CN([C@@H](C)CO)S(=O)(=O)c2ccc(-c3cncnc3)cc2O[C@H]1CN(C)C(=O)Cc1ccncc1
  DUX4 txn inh = 5.9
  DUX4 txn inh difference = 0.8
  DUX4 txn inh control = 5.1

The closing 7 compounds of the part above lead into the next.
14: COc1ccccc1C(=O)Nc1ccc2c(c1)OC[C@H](C)N(CC1CC1)C[C@H](C)[C@H](OC)CN(C)C2=O
  DUX4 txn inh = 1.1
  DUX4 txn inh difference = 2.1
  DUX4 txn inh control = -1.0
15: CC(C)NC(=O)N1[C@H](C#N)[C@H](c2ccc(C#CC3CCCC3)cc2)[C@H]1CO
  DUX4 txn inh = 3.5
  DUX4 txn inh difference = 3.2
  DUX4 txn inh control = 0.2
16: COc1cccc(-c2ccccc2[C@@H]2[C@@H](C#N)N(C(=O)Cc3ccccc3)[C@H]2CO)c1
  DUX4 txn inh = 11.8
  DUX4 txn inh difference = 37.1
  DUX4 txn inh control = -25.3
17: CCCNC(=O)N1[C@H](C#N)[C@@H](c2ccc(-c3ccc(C(=O)N(C)C)cc3)cc2)[C@@H]1CO
  DUX4 txn inh = 0.0
  DUX4 txn inh difference = 2.8
  DUX4 txn inh control = -2.8
18: O=C(C[C@@H]1CC[C@@H]2[C@H](COC[C@@H](O)CN2C(=O)c2ccccc2F)O1)NCc1ccc(Cl)cc1
  DUX4 txn inh = -0.4
  DUX4 txn inh difference = -0.9
  DUX4 txn inh control = 0.5
19: COc1ccc2c3c([nH]c2c1)[C@@H](CO)N(C(=O)C1CCC1)CC31CN(Cc2cccc(F)c2)C1
  DUX4 txn inh = u
  DUX4 txn inh difference = x
  DUX4 txn inh control = x
20: C[C@@H]1CN([C@@H](C)CO)S(=O)(=O)c2ccc(-c3cncnc3)cc2O[C@H]1CN(C)C(=O)Cc1ccncc1
  DUX4 txn inh = 5.9
  DUX4 txn inh difference = 0.8
  DUX4 txn inh control = 5.1
21: Cc1ccccc1-c1ccc([C@@H]2[C@@H](CO)N3C(=O)CN(C(=O)c4ccncc4)C[C@H]23)cc1
  DUX4 txn inh = 8.3
  DUX4 txn inh difference = 10.1
  DUX4 txn inh control = -1.8
22: Cn1cnc(S(=O)(=O)N[C@H]2CC[C@H](CC(=O)NCC3CCCCC3)O[C@H]2CO)c1
  DUX4 txn inh = -0.7
  DUX4 txn inh difference = -3.0
  DUX4 txn inh control = 2.3
23: C[C@@H]1CN([C@@H](C)CO)C(=O)CCCn2nncc2CO[C@@H]1CN(C)Cc1cccc(O)c1
  DUX4 txn inh = -6.3
  DUX4 txn inh difference = -7.6
  DUX4 txn inh control = 1.3
24: CN(C[C@@H]1[C@@H](c2ccccc2)[C@H](CO)N1C(=O)c1ccccc1)C(=O)C1CCC1
  DUX4 txn inh = -0.4
  DUX4 txn inh difference = -1.4
  DUX4 txn inh control = 0.9
25: O=C(C[C@H]1CC[C@@H]2[C@H](COC[C@H](O)CN2C(=O)c2ccncc2)O1)NC1CCC1
  DUX4 txn inh = 15.5
  DUX4 txn inh difference = 9.2
  DUX4 txn inh control = 6.3
26: O=C(Nc1ccc(-c2ccccc2)cc1)[C@@H]1[C@@H](CO)[C@@H]2Cn3c(cccc3=O)[C@@H]2N1CC1CCCC1
  DUX4 txn inh = u
  DUX4 txn inh difference = x
  DUX4 txn inh control = x
27: COc1cccc(NC(=O)N2C[C@H](O)COC[C@@H]3O[C@@H](CC(=O)NCc4ccccc4F)CC[C@H]32)c1
  DUX4 txn inh = 1.7
  DUX4 txn inh difference = 5.2
  DUX4 txn inh control = -3.5
28: C[C@@H]1CN([C@H](C)CO)C(=O)c2cccc(NC(=O)C3CCCCC3)c2O[C@@H]1CN(C)C(=O)Nc1ccc(F)cc1
  DUX4 txn inh = -0.5
  DUX4 txn inh difference = 5.5
  DUX4 txn inh control = -6.0
29: O=C(C[C@@H]1C[C@@H]2c3cc(NS(=O)(=O)c4ccc(F)cc4)ccc3O[C@@H]2[C@@H](CO)O1)NCCN1CCCCC1
  DUX4 txn inh = 5.0
  DUX4 txn inh difference = -1.4
  DUX4 txn inh control = 6.4
30: COCC#Cc1ccc2c(c1)O[C@@H](CN(C)Cc1ccccc1F)[C@@H](C)CN([C@@H](C)CO)S2(=O)=O
  DUX4 txn inh = 3.5
  DUX4 txn inh difference = -2.5
  DUX4 txn inh control = 6.0

31: CCNC(=O)C[C@@H]1CC[C@H]2[C@@H](COC[C@H](O)CN2C(=O)Nc2c(C)noc2C)O1
  DUX4 txn inh = 4.8
  DUX4 txn inh difference = -3.0
  DUX4 txn inh control = 7.8
32: CCCNC(=O)N1CC2(C1)[C@@H](c1ccccc1)[C@@H](CO)N2C(=O)C1CC1
  DUX4 txn inh = 5.7
  DUX4 txn inh difference = 4.2
  DUX4 txn inh control = 1.5
33: C[C@H](CO)N1C[C@H](C)[C@@H](CN(C)Cc2ccc3c(c2)OCCN3C)OCc2cn(nn2)CCCC1=O
  DUX4 txn inh = 1.4
  DUX4 txn inh difference = 1.2
  DUX4 txn inh control = 0.3
34: C[C@@H]1CN([C@@H](C)CO)S(=O)(=O)c2ccc(C#Cc3ccncc3)cc2O[C@@H]1CN(C)CC1CC1
  DUX4 txn inh = 1.2
  DUX4 txn inh difference = -0.4
  DUX4 txn inh control = 1.6
35: C[C@@H]1CN([C@@H](C)CO)C(=O)c2cccc(NC(=O)c3nc4ccccc4s3)c2O[C@@H]1CN(C)C(=O)Nc1ccc2c(c1)OCO2
  DUX4 txn inh = -0.8
  DUX4 txn inh difference = 0.7
  DUX4 txn inh control = -1.5
36: CN(C)C(=O)c1cccc(-c2ccc([C@@H]3[C@@H](CO)N(C(=O)C4CCC4)[C@H]3C#N)cc2)c1
  DUX4 txn inh = -1.6
  DUX4 txn inh difference = -3.8
  DUX4 txn inh control = 2.2
37: CC(C)C#Cc1ccc([C@@H]2[C@@H](CO)N(C(=O)CN(C)C)[C@H]2C#N)cc1
  DUX4 txn inh = -2.2
  DUX4 txn inh difference = -1.0
  DUX4 txn inh control = -1.2
38: COc1ccc2c3c(n(C)c2c1)[C@H](CO)N(C(C)=O)CC31CN(Cc2cccnc2)C1
  DUX4 txn inh = 10.7
  DUX4 txn inh difference = 5.2
  DUX4 txn inh control = 5.5
39: CN(C)C(=O)c1cccc(-c2ccc([C@@H]3[C@@H](C#N)N(C(=O)C4CCCCC4)[C@@H]3CO)cc2)c1
  DUX4 txn inh = -1.0
  DUX4 txn inh difference = -0.9
  DUX4 txn inh control = -0.1
40: CCS(=O)(=O)N1CC2(C1)CN(S(=O)(=O)c1cn(C)cn1)[C@H](CO)c1[nH]c3cc(OC)ccc3c12
  DUX4 txn inh = 14.0
  DUX4 txn inh difference = 8.8
  DUX4 txn inh control = 5.1

41: O=C(C[C@@H]1CC[C@H]2[C@@H](COC[C@H](O)CN2C(=O)c2ccc(F)cc2)O1)N1CCCCC1
  DUX4 txn inh = -0.7
  DUX4 txn inh difference = 0.1
  DUX4 txn inh control = -0.8
42: C[C@@H]1CN([C@H](C)CO)C(=O)CCCn2cc(nn2)CO[C@@H]1CN(C)C(=O)c1ccc(N2CCN(C)CC2)cc1
  DUX4 txn inh = 7.3
  DUX4 txn inh difference = 5.6
  DUX4 txn inh control = 1.6
43: Cc1noc(C)c1S(=O)(=O)Nc1ccc2c(c1)C(=O)N([C@@H](C)CO)C[C@H](C)[C@@H](CN(C)C(=O)Nc1ccc3c(c1)OCO3)OCCCC[C@H](C)O2
  DUX4 txn inh = 4.8
  DUX4 txn inh difference = 1.1
  DUX4 txn inh control = 3.7
44: COCC(=O)N(C)C[C@@H]1Oc2cc(C#CCC3CCCC3)ccc2S(=O)(=O)N([C@@H](C)CO)C[C@H]1C
  DUX4 txn inh = -3.6
  DUX4 txn inh difference = -1.3
  DUX4 txn inh control = -2.3
45: O=C(NC1CCCCC1)N[C@@H]1CC[C@H](CC(=O)N2CCOCC2)O[C@H]1CO
  DUX4 txn inh = 1.9
  DUX4 txn inh difference = 5.0
  DUX4 txn inh control = -3.0
46: C[C@H](CO)N1C[C@H](C)[C@H](CN(C)C(=O)Cc2ccncc2)Oc2ncc(C#CC3(O)CCCC3)cc2C1=O
  DUX4 txn inh = -2.9
  DUX4 txn inh difference = -3.1
  DUX4 txn inh control = 0.3
47: N#C[C@@H]1[C@@H](c2ccccc2C2=CCCCC2)[C@@H](CO)N1C(=O)CN1CCOCC1
  DUX4 txn inh = 9.0
  DUX4 txn inh difference = -2.9
  DUX4 txn inh control = 11.9
48: C[C@H]1CN([C@@H](C)CO)C(=O)CCCn2nncc2CO[C@@H]1CN(C)C(=O)Nc1cccc(C(F)(F)F)c1
  DUX4 txn inh = -2.4
  DUX4 txn inh difference = -2.3
  DUX4 txn inh control = -0.1

Screening data (PubChem BioAssay)
